Assay outcomes: PubChem, Broad Institute
ID4 SMM = ID4 (human) binding; P47928; small molecule microarray, Flag-ID4 binding, fluorescence F/B; calls only; 1.2% of 31,000 active;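 active = spot signal over background at p below 0.07 in all four prints; compounds were printed on slides so no solution concentration is given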;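 also: a binder raises fluorescence above local background on the spot; about 2 pmol printed per array spot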
Target sequence (P47928 whole entry, looked up): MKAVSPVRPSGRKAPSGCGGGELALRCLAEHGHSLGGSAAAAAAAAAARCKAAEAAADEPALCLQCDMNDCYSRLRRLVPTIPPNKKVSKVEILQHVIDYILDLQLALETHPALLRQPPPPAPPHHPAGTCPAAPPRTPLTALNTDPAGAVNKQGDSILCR
STAT3 SMM = STAT3 (human) binding; Small molecule microarray, His-STAT3 binding, anti-His fluorescence; calls only; 0.2% of 17,000 active; AID 624138;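 active = compounds whose four printed spots each show fluorescence over background unusually high for their array block, chance value under 7%; compounds were printed on slides so no solution concentration is given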;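 also: about 2 pmol printed per array spot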
Target sequence (P40763 whole entry, looked up): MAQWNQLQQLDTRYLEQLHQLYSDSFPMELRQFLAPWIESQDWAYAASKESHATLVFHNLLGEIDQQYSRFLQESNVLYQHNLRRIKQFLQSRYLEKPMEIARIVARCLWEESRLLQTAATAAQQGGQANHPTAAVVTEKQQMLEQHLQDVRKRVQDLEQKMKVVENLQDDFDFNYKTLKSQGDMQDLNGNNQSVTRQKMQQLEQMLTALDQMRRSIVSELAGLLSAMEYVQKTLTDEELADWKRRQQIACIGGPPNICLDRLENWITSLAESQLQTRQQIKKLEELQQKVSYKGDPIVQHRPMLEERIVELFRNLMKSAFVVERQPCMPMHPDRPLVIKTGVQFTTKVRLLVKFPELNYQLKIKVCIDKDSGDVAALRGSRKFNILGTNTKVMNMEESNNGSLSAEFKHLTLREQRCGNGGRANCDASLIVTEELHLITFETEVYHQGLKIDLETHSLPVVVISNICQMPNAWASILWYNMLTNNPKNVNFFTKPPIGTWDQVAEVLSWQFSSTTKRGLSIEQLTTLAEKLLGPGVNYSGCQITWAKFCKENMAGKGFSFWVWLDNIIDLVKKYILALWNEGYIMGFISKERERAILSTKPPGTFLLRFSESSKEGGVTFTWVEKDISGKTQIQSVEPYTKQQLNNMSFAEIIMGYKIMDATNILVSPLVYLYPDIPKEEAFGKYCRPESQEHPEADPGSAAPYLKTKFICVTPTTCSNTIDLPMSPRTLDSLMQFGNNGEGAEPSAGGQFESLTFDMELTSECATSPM
Myc binder = binds human c-Myc on microarray | AID 624141 | 1.5% of 17,000 active | small molecule microarray, His-c-Myc binding, anti-His fluorescence | P01106 | calls only;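 active = spot fluorescence over background with P-value below 7% in all four replicate spots, showing protein binding; compounds were printed on slides so no solution concentration is given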;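 also: score is binary with 100 for all four spots passing and 0 otherwise; about 2 pmol printed per array spot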
p53 mut binder = binders of human mutant p53; small molecule microarray binding, anti-GST fluorescence; calls only; 0.4% of 17,000 active; AID 624136;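 active = compounds whose four printed spots each glow above background more than chance allows, each with a p-value under 7%; compounds were printed on slides so no solution concentration is given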;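 also: about 2 pmol printed per array spot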
Calls only; i = inactive; · = not tested or not shown; + = active, no number.

Compound	ID4 SMM	STAT3 SMM	Myc binder	p53 mut binder
C[C@@H]1CCCCO[C@@H](CN(C)C(=O)Nc2ccccc2)[C@H](C)CN([C@@H](C)CO)C(=O)c2cc(NC(=O)CCC(F)(F)F)ccc2O1	i	i	i	i
C[C@H](CO)N1C[C@H](C)[C@@H](CN(C)C(=O)NC2CCCCC2)Oc2ccc(NC(=O)Nc3ccc(F)cc3)cc2CC1=O	i	i	i	i
CNC[C@@H]1OCCCC[C@H](C)Oc2ccc(NS(=O)(=O)c3cccs3)cc2C(=O)N([C@H](C)CO)C[C@@H]1C	i	i	i	i
Cc1noc(C)c1NC(=O)Nc1ccc2c(c1)C(=O)N([C@@H](C)CO)C[C@H](C)[C@H](CN(C)Cc1ccncc1)OCCCC[C@@H](C)O2	i	i	i	i
O=C(O)c1ccc(NS(=O)(=O)c2cccc(C(=O)Nc3ccccc3)c2)cc1	i	i	i	i
Clc1ccc(-c2csc3ncnc(NCCN4CCOCC4)c23)cc1	i	i	i	i
CNC[C@@H]1OCCCC[C@@H](C)Oc2ccc(NC(=O)CCC(F)(F)F)cc2C(=O)N([C@@H](C)CO)C[C@@H]1C	i	i	i	i
C[C@@H]1CN([C@@H](C)CO)C(=O)c2cc(NC(=O)Nc3ccc4c(c3)OCO4)ccc2O[C@H]1CN(C)C(=O)Nc1ccc2c(c1)OCO2	i	i	i	i
C[C@@H]1CCCCO[C@@H](CN(C)S(=O)(=O)c2cn(C)cn2)[C@@H](C)CN([C@@H](C)CO)C(=O)c2cc(NS(C)(=O)=O)ccc2O1	i	i	i	i
Cc1noc(C)c1NC(=O)N(C)C[C@H]1OCCCC[C@H](C)Oc2ccc(N(C)C)cc2C(=O)N([C@H](C)CO)C[C@@H]1C	i	i	i	i
CCCSc1nc(NCCO)c2c3c(sc2n1)COC(C)(CC)C3 (stereo unspecified)	i	i	i	i
COC(=O)C1=CO[C@@H](O[C@@H]2O[C@H](CO)[C@@H](O)[C@H](O)[C@H]2O)/C(=C\CO)[C@@H]1CC(=O)OCCc1ccc(O)cc1	·	i	i	i
C[C@@H]1CN([C@@H](C)CO)C(=O)CCCn2cc(nn2)CO[C@@H]1CN(C)C(=O)C1CC1	i	i	i	i
CNC[C@@H]1Oc2ccc(NC(=O)CCC(F)(F)F)cc2CC(=O)N([C@H](C)CO)C[C@H]1C	i	i	i	i
Cc1noc(C)c1NC(=O)Nc1ccc2c(c1)C(=O)N([C@@H](C)CO)C[C@@H](C)[C@H](CN(C)C)OCCCC[C@@H](C)O2	i	i	i	i

Compound	ID4 SMM	STAT3 SMM	Myc binder	p53 mut binder
C[C@H]1CN([C@@H](C)CO)C(=O)CCCn2nncc2CO[C@@H]1CN(C)Cc1ccncc1	i	i	i	i
C#C[C@]1(O)CC[C@H]2[C@@H]3CCc4cc(OC)ccc4[C@H]3CC[C@@]21C	i	i	i	i
Cc1ccc(-c2csc3nc(SCC(=O)O)n(-c4ccccc4)c(=O)c23)cc1	i	i	i	i
COc1ccc(CN(C)C[C@@H]2Oc3c(NS(=O)(=O)c4ccc(OC)cc4)cccc3C(=O)N([C@H](C)CO)C[C@@H]2C)cc1	i	i	i	i
Cc1cc2nsnc2c(S(=O)(=O)NCC(=O)O)c1C	i	i	i	i
COc1ccc(S(=O)(=O)Nc2ccc3c(c2)C(=O)N([C@H](C)CO)C[C@H](C)[C@H](CN(C)Cc2ccncc2)O3)cc1	i	i	i	i
CC(C)NC(=O)N(C)C[C@H]1Oc2ccc(NC(=O)CCC(F)(F)F)cc2CC(=O)N([C@H](C)CO)C[C@@H]1C	i	i	i	i
COc1ccc(NC(=S)NCc2ccccn2)cc1OC	i	i	i	i
CCOc1cc(/C=C(/C#N)C(N)=O)cc(CSc2ccccc2)c1O	i	i	i	i
C[C@H](CO)N1C[C@H](C)[C@@H](CN(C)C)Oc2ccc(NS(=O)(=O)c3cn(C)cn3)cc2C1=O	i	i	i	i
O=C1O[C@H](c2ccccc2)[C@H](c2ccccc2)N2[C@H]1[C@@H](C(=O)O)[C@]1(C(=O)Nc3ccc(C#CC4(O)CCCCCC4)cc31)[C@H]2c1ccc(O)cc1	i	i	i	i
C[C@@H]1CCCCO[C@H](CN(C)S(=O)(=O)c2ccc(Cl)cc2)[C@H](C)CN([C@H](C)CO)C(=O)c2cc(NC(=O)Cc3ccccc3)ccc2O1	·	i	i	i
C[C@@H]1CCCCO[C@@H](CN(C)C)[C@@H](C)CN([C@@H](C)CO)C(=O)c2cc(NS(C)(=O)=O)ccc2O1	i	i	i	i
Cc1ccc(Cl)cc1NC(=O)CC(C(=O)O)N1CCNCC1 (stereo unspecified)	i	i	i	i
C[C@@H]1CN([C@H](C)CO)C(=O)c2cc(NC(=O)c3ccccc3)ccc2O[C@@H](C)CCCCO[C@H]1CN(C)C(=O)Nc1ccccc1	i	i	i	i

The last two records of the section above come first, to join the parts:
Compound	ID4 SMM	STAT3 SMM	Myc binder	p53 mut binder
Cc1ccc(Cl)cc1NC(=O)CC(C(=O)O)N1CCNCC1 (stereo unspecified)	i	i	i	i
C[C@@H]1CN([C@H](C)CO)C(=O)c2cc(NC(=O)c3ccccc3)ccc2O[C@@H](C)CCCCO[C@H]1CN(C)C(=O)Nc1ccccc1	i	i	i	i
O=C(CNS(=O)(=O)c1cc(Cl)ccc1Cl)Nc1ccc2c(c1)OCCO2	i	i	i	i
Cc1nc(-c2ccccc2)sc1C(=O)C1C(=O)C(=O)N(CCN(C)C)C1c1ccccc1 (stereo unspecified)	i	i	i	i
O=C(c1ccccc1)N1CCN(c2ccc([N+](=O)[O-])c(NCc3cccnc3)c2)CC1	i	i	i	i
COc1ccccc1NC(=O)CNC(=O)c1ccccc1Cl	i	i	i	i
O=C1c2c(O)cc(O)cc2OC(c2ccc(O)cc2)C1C1C(=O)c2c(O)cc(O)cc2OC1c1ccc(O)cc1 (stereo unspecified)	i	i	i	i
CO[C@H]1C(=O)c2c(O)c(CC=C(C)C)c(O)c(CC=C(C)C)c2O[C@@H]1c1ccc(O)cc1	i	i	i	i
C[C@H](CO)N1C[C@H](C)[C@@H](CN(C)Cc2ccc(Oc3ccccc3)cc2)Oc2ccc(NC(=O)CCCN(C)C)cc2CC1=O	·	i	i	i
C[C@@H]1CCCCO[C@@H](CN(C)C)[C@H](C)CN([C@@H](C)CO)C(=O)c2cc(NS(=O)(=O)c3cccs3)ccc2O1	i	i	i	i
CC(C)NC(=O)Nc1ccc2c(c1)C(=O)N([C@@H](C)CO)C[C@H](C)[C@H](CN(C)C(=O)C1CCCCC1)OCCCC[C@H](C)O2	i	i	i	i
C[C@@H]1CN([C@H](C)CO)C(=O)c2cccc(NC(=O)Nc3ccc4c(c3)OCO4)c2O[C@H]1CN(C)C(=O)Nc1ccc(C(F)(F)F)cc1	·	i	i	i
COC1CC(OC(O)C(O)C(O)C(O)C(O)CO)c2c(cc3cc(C)oc(=O)c3c2O)OC1=O (stereo unspecified)	·	i	i	i
CC(C)NC(=O)Nc1ccc2c(c1)C(=O)N([C@H](C)CO)C[C@H](C)[C@@H](CN(C)Cc1ccccc1)OCCCC[C@H](C)O2	i	i	i	i
Cc1nc(S(=O)(=O)N[C@@H]2CCN(Cc3ccc(OCCO)cc3)C2)cn1C	i	i	i	i
Cc1noc(C)c1S(=O)(=O)N(C)C[C@@H]1OCCCC[C@@H](C)Oc2ccc(N(C)C)cc2C(=O)N([C@H](C)CO)C[C@H]1C	i	i	+	i
C[C@H](CO)N1C[C@H](C)[C@@H](CN(C)Cc2ccncc2)Oc2ccc(NC(=O)CCCN(C)C)cc2CC1=O	i	i	i	i

Compound	ID4 SMM	STAT3 SMM	Myc binder	p53 mut binder
N#CCCN(CCC#N)C(=O)c1cccc([N+](=O)[O-])c1	i	i	i	i
CNC[C@@H]1OCCCC[C@H](C)Oc2ccc(NC(=O)C3CCCCC3)cc2C(=O)N([C@H](C)CO)C[C@@H]1C	i	i	i	i
O=C(NC1CC1)C1=C[C@H](c2coc3ccccc3c2=O)C[C@H](OCCCCO)O1	·	i	i	i
O=C(Nc1ccc(Cl)cc1C(=O)NCCO)c1ccc(Cl)cc1Cl	i	i	i	i
C[C@@H]1CCCCO[C@@H](CN(C)C(=O)Nc2ccccc2)[C@H](C)CN([C@@H](C)CO)C(=O)c2cc(NS(C)(=O)=O)ccc2O1	i	i	i	i
C[C@@H]1CN([C@H](C)CO)C(=O)c2cccc(NC(=O)NC3CCCCC3)c2O[C@H]1CN(C)C(=O)Nc1cccc2ccccc12	i	i	i	i
Cc1noc(C)c1NC(=O)N(C)C[C@@H]1Oc2c(NC(=O)NC3CCCCC3)cccc2C(=O)N([C@@H](C)CO)C[C@H]1C	i	i	i	i
Cc1noc(C)c1S(=O)(=O)N(C)C[C@@H]1Oc2ccc(NC(=O)Nc3ccc(F)cc3)cc2CC(=O)N([C@H](C)CO)C[C@H]1C	i	i	i	i
COc1ccc(NC(=O)Nc2cccc3c2O[C@@H](CN(C)C(=O)Nc2ccccc2)[C@H](C)CN([C@@H](C)CO)C3=O)cc1	i	i	i	i
Cc1cc(C(F)(F)F)nc(SCc2cccc(C(=O)O)c2)n1	i	i	i	i
CN1CCN(C(=O)c2ccccc2N(Cc2ccccc2)S(C)(=O)=O)CC1	i	i	i	i
CC(NC(=O)c1ccccc1NC(=O)c1ccccc1)C(=O)N1CCOCC1 (stereo unspecified)	i	i	i	i
CCn1c2ccccc2n2c(SC(C)C(=O)O)nnc12 (stereo unspecified)	i	i	i	i
C[C@H]1CN([C@@H](C)CO)C(=O)c2cc(NC(=O)CCCN(C)C)ccc2O[C@@H]1CN(C)S(=O)(=O)c1cn(C)cn1	·	i	i	i
COc1ccc(S(=O)(=O)N(C)C[C@H]2Oc3c(NC(=O)c4cc(C)nn4C)cccc3C(=O)N([C@@H](C)CO)C[C@H]2C)cc1	i	i	i	i

Sorted by SMILES length (highest first): seven of the compounds above.
Compound	ID4 SMM	STAT3 SMM	Myc binder	p53 mut binder
Cc1noc(C)c1S(=O)(=O)N(C)C[C@@H]1Oc2ccc(NC(=O)Nc3ccc(F)cc3)cc2CC(=O)N([C@H](C)CO)C[C@H]1C	i	i	i	i
COc1ccc(S(=O)(=O)N(C)C[C@H]2Oc3c(NC(=O)c4cc(C)nn4C)cccc3C(=O)N([C@@H](C)CO)C[C@H]2C)cc1	i	i	i	i
COc1ccc(NC(=O)Nc2cccc3c2O[C@@H](CN(C)C(=O)Nc2ccccc2)[C@H](C)CN([C@@H](C)CO)C3=O)cc1	i	i	i	i
O=C(NC1CC1)C1=C[C@H](c2coc3ccccc3c2=O)C[C@H](OCCCCO)O1	·	i	i	i
CN1CCN(C(=O)c2ccccc2N(Cc2ccccc2)S(C)(=O)=O)CC1	i	i	i	i
O=C(Nc1ccc(Cl)cc1C(=O)NCCO)c1ccc(Cl)cc1Cl	i	i	i	i
CCn1c2ccccc2n2c(SC(C)C(=O)O)nnc12 (stereo unspecified)	i	i	i	i

More records follow:
Compound	ID4 SMM	STAT3 SMM	Myc binder	p53 mut binder
C[C@@H]1CCCCO[C@H](CN(C)S(=O)(=O)c2ccccc2)[C@H](C)CN([C@H](C)CO)C(=O)c2cc(N(C)C)ccc2O1	i	i	i	i
C[C@@H]1CCCCO[C@H](CN(C)C(=O)c2ccccc2)[C@@H](C)CN([C@@H](C)CO)C(=O)c2cc(NS(C)(=O)=O)ccc2O1	i	i	i	i
COc1cc(O)c2c(=O)c(OC)c(-c3cc(O)c(OC)c(OC)c3)oc2c1	i	i	i	i
C[C@H](CO)N1C[C@H](C)[C@@H](CN(C)S(=O)(=O)c2ccc(Cl)cc2)Oc2ccc(NC(=O)NC3CCCCC3)cc2C1=O	+	i	i	i
C[C@@H]1CN([C@@H](C)CO)C(=O)c2cccc(NC(=O)Nc3ccc(C(F)(F)F)cc3)c2O[C@@H]1CN(C)C	i	i	i	i
COc1ccc(S(=O)(=O)N(C)C[C@H]2Oc3ccc(NC(=O)CCN4CCOCC4)cc3C(=O)N([C@H](C)CO)C[C@H]2C)cc1	i	i	i	i
C[C@@H]1CN([C@H](C)CO)C(=O)c2cc(NC(=O)Nc3ccc4c(c3)OCO4)ccc2O[C@H]1CN(C)CC1CCCCC1	i	i	i	i
Cc1c(C(=O)N(C)C2CCCCC2)sc2nc3ccc(N)cc3n12	i	i	+	i
COc1ccc(NC(=O)N(C)C[C@H]2Oc3c(cccc3N(C)C)C(=O)N([C@@H](C)CO)C[C@@H]2C)cc1	i	i	i	i
C[C@@H]1CN([C@H](C)CO)C(=O)c2cc(NS(=O)(=O)c3cccs3)ccc2O[C@H]1CN(C)C(=O)Nc1ccc2c(c1)OCO2	i	i	i	i
CC(=O)Nc1cccc(NC(=O)c2cc(-c3ccc(C)o3)nc3ccccc23)c1	i	i	i	i
C[C@H](CO)N1C[C@H](C)[C@@H](CN(C)C)Oc2ccc(NC(=O)Cc3ccccc3)cc2C1=O	i	i	i	i
CS(=O)(=O)N(CC(=O)Nc1ccccc1Br)c1ccc(Oc2ccccc2)cc1	i	i	i	i
C[C@@H]1CN([C@@H](C)CO)C(=O)c2cccc(NS(=O)(=O)c3ccc(Cl)cc3)c2O[C@@H]1CN(C)C(=O)Nc1cccc2ccccc12	i	i	i	i
COc1ccccc1OCC(=O)Nc1cc(-c2nc3ccccc3[nH]2)ccc1C	+	i	i	i

This is a subset; the hit share may differ from the screen's.
